Compound activity as filed in PubChem.
PKD1 kinase inh = blocks activity of human protein kinase D1. Q15139. PKD1 kinase fluorescence polarization assay. inhibition, %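 (about 10 µM by stock and volumes)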. actives 0.056% (n = 200,000). AID 797;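 active means inhibition of 50% or more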;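 further: controls were vehicle for no effect and a reference inhibitor for full effect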
INS promoter inh = TRM-6 insulin promoter activity inhibition; TRM-6 cells (human fetal islet line), insulin promoter-eGFP reporter, imaging; reporter expression induced with tamoxifen; AID 1273; actives 0.9% (n = 130,000); inhibition, % at 2 µM;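 active means inhibition above the mean plus 3 SD, with well images judged a real hit on visual review, cut at about 60% in these data, passing the limit was not always enough; inconclusive means inhibition over the cutoff but images rejected on review; inactive means inhibition not above the cutoff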
HSV augment = HSV replication enhancement; HSV replication augmentation in cells, fold increase; maximum fold increase; actives 0.005% (n = 220,000); AID 1956;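 active means peak rise of 1.5-fold or more in the series; inconclusive means self-fluorescent or not available for retest; tested in PC3 cells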;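 further: first round at 10 µM; read as green reporter fluorescence; hits show the peak of a series up to 25 µM; 1 = signal of infected wells without compound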
GALR2 agonist = activates the human galanin receptor 2. actives 0.48% (n = 140,000). GALR2-expressing cells, agonist activation read-out. activation, %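 (tested at 5 µM)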. O43603;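 active means above mean plus 3 SD of all compounds, about 5% in these data, not always enough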;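 further: 0% = vehicle buffer wells and 100% = reference agonist at full effect; tested in CHO reporter cells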
Target sequence (O43603 whole entry, looked up): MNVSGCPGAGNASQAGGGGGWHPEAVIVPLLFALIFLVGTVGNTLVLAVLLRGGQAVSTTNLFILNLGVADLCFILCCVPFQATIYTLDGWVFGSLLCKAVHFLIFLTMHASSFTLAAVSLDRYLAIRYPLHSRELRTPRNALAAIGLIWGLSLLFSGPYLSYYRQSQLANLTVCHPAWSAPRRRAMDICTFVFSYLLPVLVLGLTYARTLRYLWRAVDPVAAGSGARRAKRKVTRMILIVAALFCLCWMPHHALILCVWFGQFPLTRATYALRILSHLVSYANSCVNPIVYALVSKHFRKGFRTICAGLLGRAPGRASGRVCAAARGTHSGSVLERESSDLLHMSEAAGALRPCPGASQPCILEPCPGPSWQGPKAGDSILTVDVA
RGS16-Gao = modulates binding between human RGS16 and Galphao | O15492+P09471 | bead-based flow cytometry RGS16-Galphao binding, fluorescence; actives lie on both sides | binding response (% of control), % at 10 µM | actives 0.38% (n = 220,000) | AID 1441;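 active means below 25% or above 175%, edge rows of some plates excepted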;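 further: Galphao activated by GDP with aluminum fluoride before binding; 100% = wells without compound and 0% = beads without RGS; some results beyond the cut were filed as inactive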
Target sequence (O15492 whole entry, looked up): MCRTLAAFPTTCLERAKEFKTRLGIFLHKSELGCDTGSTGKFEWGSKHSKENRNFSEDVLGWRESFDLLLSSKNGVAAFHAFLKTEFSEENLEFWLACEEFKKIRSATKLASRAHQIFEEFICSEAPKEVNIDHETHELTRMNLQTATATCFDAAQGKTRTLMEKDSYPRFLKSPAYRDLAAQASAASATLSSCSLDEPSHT
Target sequence (P09471 whole entry, looked up): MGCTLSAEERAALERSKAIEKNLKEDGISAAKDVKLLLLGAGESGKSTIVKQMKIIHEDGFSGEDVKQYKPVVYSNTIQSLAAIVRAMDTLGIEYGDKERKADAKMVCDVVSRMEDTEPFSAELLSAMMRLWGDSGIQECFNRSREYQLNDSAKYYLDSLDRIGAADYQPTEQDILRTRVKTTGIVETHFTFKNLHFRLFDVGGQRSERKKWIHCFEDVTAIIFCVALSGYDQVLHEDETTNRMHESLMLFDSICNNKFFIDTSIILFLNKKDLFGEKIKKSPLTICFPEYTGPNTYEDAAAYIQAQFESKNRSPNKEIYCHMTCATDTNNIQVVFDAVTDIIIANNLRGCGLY
INS promoter inh cell count = second read-out of INS promoter inh, no call of its own (marks repeat the call); normalized cell count, %; measured here: cell count, toxicity; reference of the scale not given here;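 cells exposed to compound for 48 h; stained nuclei by imaging scaled within each plate; lower means fewer cells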
HSV augment primary fold = further read-out of HSV augment, marked with its call; fold increase; compound at 10 µM; measured here: primary screen fold increase 10 uM; tested in PC3 cells;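 GFP signal in the first replicate; 1 = infected wells without compound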
* marks the source's active call; other numbers are inactive results; i = inactive; ? = inconclusive; . = not tested or not shown.

SMILES	PKD1 kinase inh	INS promoter inh	INS promoter inh cell count	HSV augment	HSV augment primary fold	GALR2 agonist	RGS16-Gao
Cc1ccc(C(=O)OCc2nc(N)nc(Nc3ccccc3C)n2)cc1	-9	-15	93	i	0.87	-0.1	109
O=C(O)c1cc(-c2ccccc2)n(-c2ccc(Cl)cc2)n1	0	.	.	i	0.93	.	101
COC(=O)c1ccccc1NC(=O)c1sc(=S)n(C)c1N	3	.	.	i	0.85	-1.1	85
O=C(COc1ccccc1Cl)NC(=S)N1CCc2ccccc21	-1	.	.	i	1.1	-2.1	99
Cc1ccccc1N1OC2C(=O)N(c3ccc(F)cc3)C(=O)C2C1c1ccccn1 (centres undefined)	-4	-11	86	i	1	-2.8	102
O=C(c1ccc(Cl)cc1)[C@@H]1[C@@H]2C(=O)N(c3ccc(Cl)cc3)C(=O)[C@@H]2C2c3ccccc3C=NN21 (some centres undefined)	7	-27	72	i	1.4	-1.9	144
CC1CC2=C(CC1/C=N/NC(N)=S)C(C)(C)CCC2 (centres undefined)	5	32	131	i	0.77	-2.1	100
CC(=O)Oc1ccc(C(=O)Nc2cccc(C(=O)NC(C)(C)C)c2)cc1	5	-22	153	i	0.94	.	111
O=C(Nc1ccc(Cl)c(Cl)c1)N1CCSCC1	-4	-456	56	i	0.88	0.4	47
O=C(N/N=C/c1ccc2ncccc2c1)c1ccco1	0	.	.	i	0.93	.	101
CCc1nnc(SCC(=O)NC2CCCCC2)nc1CC	-3	-59	99	i	1.2	0.0	122
Cc1ccc(C(c2sc3nc(C)nn3c2O)N2CCN(c3ccccc3)CC2)cc1 (centres undefined)	2	-27	63	i	1	-2.5	103
C/C(CC(=O)Nc1cccc(Cl)c1C)=N\NC(=O)Cc1csc(N)n1	-6	.	.	i	1.1	.	103
CCOC(=O)C1CCN(CC(O)COCc2cccs2)CC1 (centres undefined)	-10	.	.	i	0.93	.	103
CC(NC(=O)Cc1ccccc1)c1ccc(F)cc1 (centres undefined)	-1	.	.	i	0.91	-1.3	83
Cc1ccc(C)c(N2CCN(C(=O)CN(C)S(=O)(=O)c3cnc[nH]3)CC2)c1	-10	-28	150	i	0.96	-1.4	102
COC(=O)Nc1nnc(CCc2ccccc2)s1	-1	52	108	i	1.1	-1.1	124
CCOC(=O)c1ccccc1Cc1nc2ccccc2c(=O)[nH]1	-19	.	.	i	0.9	0.9	99
CCn1c(NC(=O)c2ccc(C)cc2)c2ccccc2nc1=O	-1	9	118	i	0.88	-0.5	103
Cc1ccc(C2CC(=O)N(c3ccc(F)cc3)C3=C2C(=O)CCC3)cc1 (centres undefined)	-7	-5	106	i	1	-0.7	103
CC(C)(CNS(C)(=O)=O)SCc1ccc(Cl)cc1	-3	-21	48	.	.	.	99
COC(=O)c1ccc(NC(=O)CSCc2ccccc2)cc1	1	9	108	i	0.96	-1.7	102
Cc1cc(C)c(C(N)=O)c(NCCc2ccccc2)n1	0	45	96	i	0.9	-2.1	104
CCCCCCn1c(N2CCC(C(N)=O)CC2)nc2c1c(=O)n(C)c(=O)n2C	1	.	.	i	0.9	1.9	56
ONC(=Nc1ccccc1Cl)c1ccccc1Cl	.	.	.	i	1.1	.	98
N#Cc1c(-c2ccccc2)cc(C2CC2)nc1SCC(=O)O	1	.	.	i	1.1	-0.3	99
CCn1c(O)c(N=NC(=S)NCC2CCCO2)c2ccccc21 (centres undefined)	-3	.	.	i	0.9	.	102
CCOc1cc(C2C(C(=O)OCC(C)C)=C(C)N=C3SCCC(=O)N32)ccc1OC(C)=O (centres undefined)	-11	.	.	i	1	0.4	104
Cc1ccc(N(CC(=O)NC2CCCC2)C(=O)CCCC(=O)Nc2ccccn2)cc1C	31	-94	81	i	0.86	-0.8	102
CCN(CC)C1=N/C(=C\c2ccco2)C(=O)N1c1ccccc1	6	-4	118	i	1.1	-0.6	108
CCOc1ccc(CCNC(=O)c2nnc(Cc3ccc(F)cc3)o2)cc1OCC	1	35	125	.	.	-1.6	104
COc1cc2nc(SCC(=O)c3ccc(Br)cc3)n3nc(C)nc3c2cc1OC	-5	0	165	i	0.88	-0.3	111
CCOC(=O)c1[nH]c2ccccc2c1NC(=O)CCN1CCN(C(=O)OCC)CC1	-6	17	98	i	1	-0.6	98
Cc1c(Cl)c(-c2n[nH]c(=S)n2-c2ccc(F)cc2)nn1C	2	-8	129	i	0.93	-3.5	93
c1ccc2c(Nc3ccc4c(c3)OCCO4)c3c(nc2c1)CCC3	-2	.	.	i	0.74	.	101
COc1ccc(-n2c(=S)[nH]c3cc(C(=O)NCCCN4CCOCC4)ccc3c2=O)c(OC)c1	-5	.	.	i	0.89	.	98
COc1ccc(CNCC(O)(c2ccccc2)c2ccc(Cl)cc2)cc1 (centres undefined)	-1	.	.	i	1	-2.5	96
O=C(N/N=C/C(Br)=C\c1ccccc1)c1cccs1	.	.	.	i	0.79	.	103
COc1ccc(C2CC(c3cccc(Cl)c3)n3nc(N)nc3N2)cc1 (centres undefined)	-9	20	161	i	0.85	-0.3	99
COCC1CCN(c2nc3nonc3nc2N2CCSCC2)C1 (centres undefined)	1	.	.	i	0.8	.	84

Overlap with the part before: 2 entries; new compounds follow.
SMILES	PKD1 kinase inh	INS promoter inh	INS promoter inh cell count	HSV augment	HSV augment primary fold	GALR2 agonist	RGS16-Gao
COc1ccc(C2CC(c3cccc(Cl)c3)n3nc(N)nc3N2)cc1 (centres undefined)	-9	20	161	i	0.85	-0.3	99
COCC1CCN(c2nc3nonc3nc2N2CCSCC2)C1 (centres undefined)	1	.	.	i	0.8	.	84
COC(=O)c1ccc(-c2noc(CN(Cc3ccncc3)CC3CCCO3)n2)cc1 (centres undefined)	0	-27	95	i	1.1	.	100
COc1ccc(S(=O)(=O)N(CC(=O)N2CCOCC2)Cc2ccccc2)cc1C	-5	-50	92	i	0.99	-2.4	103
CCCS(=O)(=O)N1CCN(Cc2ccccc2[N+](=O)[O-])CC1	1	.	.	i	0.95	.	99
CCn1c(SCc2nc(-c3ccc(Cl)cc3)no2)nnc1-c1ccco1	-4	49	49	i	0.98	0.4	99
Cc1ccc(-n2c(SCC(=O)NCc3ccco3)nc3c(sc4ccccc43)c2=O)cc1	-10	55	85	i	0.92	0.1	94
O=C(CSc1nnc(COc2cccc3ccccc23)o1)N1c2ccccc2CCc2ccccc21	6	-3	79	?	.	-3.6	100
CC(=O)Nc1cccc(NC(=S)Nc2ccc(F)cc2F)c1	-1	-15	93	i	1	.	99
COC(=O)c1ccc(-n2c(C)cc(/C=N/n3cnnc3)c2C)cc1	1	.	.	i	1.1	-1.5	99
O=C1CSC2=NCN(c3ccc4c(c3)OCO4)CN12	19	.	.	i	0.9	-1.9	97
CCOC(=O)c1sc(N)c(C(=O)Nc2ccccc2)c1C	10	.	.	i	0.93	.	91
O=[N+]([O-])c1ccc(-c2nc3ccc([N+](=O)[O-])cc3[nH]2)cc1	-3	23	158	i	0.78	-2.2	101
CCOC(=O)C1=C(CN2c3ccccc3CC2C)NC(=O)NC1c1ccccc1 (centres undefined)	-4	-62	105	i	0.94	0.0	99
CCc1ccc(NC(=O)CC2C(=O)Nc3c2c(=O)n(C)c(=O)n3C)cc1 (centres undefined)	2	-3	107	i	0.92	-2.2	100
COC(=O)c1cn(NC(=O)c2ccccc2[N+](=O)[O-])c(=O)c2ccccc12	-6	-13	95	i	0.99	.	107
COc1cc(S(=O)(=O)N2CCOCC2)ccc1F	-7	.	.	i	1	-1.5	207
Cc1cc(NC(=O)c2cccc3ccccc23)cc(C)c1OCC(=O)N1CCOCC1	-2	25	73	i	0.83	-0.1	135
CCN(CCO)Cc1cc(=O)oc2c(C)c(C)ccc12	-4	42	111	i	1	-2.1	100
Cc1ccccc1NC(=O)C1CCCN1/C=C/C(=O)C(F)(F)F (centres undefined)	3	.	.	i	1	0.1	97
CC(C)(C)C(C(Oc1ccc(Cl)cc1)n1cncn1)n1nnnc1C(c1cccc(Cl)c1)N1CCCCC1 (centres undefined)	-2	-20	49	i	1.2	-1.1	105
O=C(Oc1oc(-c2ccco2)nc1C=Nc1ccc(Cl)cc1)c1ccco1	-2	7	73	.	.	-1.4	88

In the list so far, these contain an NH in an aromatic ring:
SMILES	PKD1 kinase inh	INS promoter inh	INS promoter inh cell count	HSV augment	HSV augment primary fold	GALR2 agonist	RGS16-Gao
Cc1ccc(C)c(N2CCN(C(=O)CN(C)S(=O)(=O)c3cnc[nH]3)CC2)c1	-10	-28	150	i	0.96	-1.4	102
CCOC(=O)c1ccccc1Cc1nc2ccccc2c(=O)[nH]1	-19	.	.	i	0.9	0.9	99
CCOC(=O)c1[nH]c2ccccc2c1NC(=O)CCN1CCN(C(=O)OCC)CC1	-6	17	98	i	1	-0.6	98
Cc1c(Cl)c(-c2n[nH]c(=S)n2-c2ccc(F)cc2)nn1C	2	-8	129	i	0.93	-3.5	93
COc1ccc(-n2c(=S)[nH]c3cc(C(=O)NCCCN4CCOCC4)ccc3c2=O)c(OC)c1	-5	.	.	i	0.89	.	98
O=[N+]([O-])c1ccc(-c2nc3ccc([N+](=O)[O-])cc3[nH]2)cc1	-3	23	158	i	0.78	-2.2	101

Carrying on:
SMILES	PKD1 kinase inh	INS promoter inh	INS promoter inh cell count	HSV augment	HSV augment primary fold	GALR2 agonist	RGS16-Gao
COCCn1c(=NC(=O)/C=C/c2ccccc2Cl)sc2cc(NC(C)=O)ccc21	-18	-32	104	i	0.96	6.0*	150
O=S(=O)(NCc1cccnc1)c1cccn1-c1ncc(C(F)(F)F)cc1Cl	-6	.	.	i	0.93	.	98
O=C(NCC1CCCO1)c1ccc2c(=O)n(-c3ccccc3)c(=S)[nH]c2c1 (centres undefined)	-9	-67	59	i	0.96	.	104
COc1cc(CN2CCN(CCOCCO)CC2)cc(OC)c1OC	-6	.	.	i	0.86	-0.9	108
Cc1ccc(N(CC(=O)N/N=C/c2ccc(OC3CSC3)cc2)S(=O)(=O)c2ccccc2)c(C)c1	1	.	.	i	0.99	0.8	104
Cc1cc(=O)[nH]c2c(C)c(Cl)ccc12	3	.	.	i	0.95	-1.2	102
CCOc1ccc(Br)cc1S(=O)(=O)N1CCC(C(=O)O)CC1	-8	-9	111	i	1.1	.	100
FC(F)(F)c1cc(N2CCN(Cc3ccccc3)CC2)c2ccccc2n1	.	.	.	i	1	.	97
CCCN(CCC)C(=O)CSc1nc2ccccc2c(=O)n1C1CCCC1	-8	-257	67	i	0.49	-1.5	94
COc1ccc(OCc2nn3c(-c4cccc(OC)c4)nnc3s2)cc1	-11	-36	119	i	0.84	-2.5	100
O=C(c1cccnc1)N1N=C(c2cccs2)CC1c1ccc(F)cc1 (centres undefined)	-4	-33	63	i	0.87	.	101
O=C(CNC(=O)c1ccc(N2C(=O)c3ccccc3C2=O)cc1)OCC(=O)c1cccc2ccccc12	-12	-26	65	i	1	-0.4	75
COc1ccccc1-n1ccnc1SCC(=O)NCc1ccco1	0	-4	132	i	1	.	109
CCn1nnnc1-c1ccc(OC)c(S(=O)(=O)Nc2ccc(OC)cc2)c1	-1	-39	99	i	0.78	-1.0	103
COc1ccccc1OCC#CCNC1CCCCC1C (centres undefined)	-7	.	.	i	1.1	.	102
Cc1ccc(N=Nc2[nH]c3ccccc3c2O)cc1	4	-46	133	.	.	-1.0	106
Cc1ccc(NC(=O)c2cc(NC(=O)CCCC(=O)O)ccc2Cl)cc1Cl	2	6	140	i	0.95	-2.6	115
O=C(CCN1C(=O)c2ccccc2C1=O)N1CCCCCC1	-1	15	156	i	0.98	-2.1	105
O=C(Nc1nc(-c2ccc(Oc3ccccc3)cc2)cs1)C1=COCCO1	-7	.	.	i	1	-1.1	101
COc1ccc(C2C3=C(CC(C)(C)CC3=O)OC(N)=C2[N+](=O)[O-])cc1 (centres undefined)	-6	-7	132	i	0.98	0.5	98
COc1ccccc1NCC(=O)N/N=C/c1cccnc1	2	.	.	i	1.1	-3.9	93
Cc1cc2oc(C(=O)Nc3ccc(S(=O)(=O)N4CCCC(C)C4)cc3)cc(=O)c2cc1Cl (centres undefined)	1	10	110	i	0.87	-1.9	110
O=C1C(C=Nc2ccc(F)cc2)=C(O)c2ccccc21	-3	-11	72	i	1	.	107
Cc1c(C(=O)NC(C)c2ccncc2)oc2ccccc12 (centres undefined)	-7	3	91	i	0.94	-0.8	101
Cc1ccc(CNC(=O)CCc2nc(-c3cccs3)no2)cc1	-7	.	.	i	0.76	-1.8	102
CCOC(=O)c1c(-c2ccccc2)csc1NC(=S)NC	-3	26	96	i	0.94	1.1	102
O=C(CSc1nnc(Cn2c(=O)sc3ccccc32)n1-c1ccccc1)N1CCCC1	5	.	.	i	1.2	-0.2	101
